FGF22 binding = binders of human FGF22 protein, primary screen, FGF22 synaptogenesis inhibitor project, biophysical, thermal shift, single point; Fibroblast growth factor 22 (Homo sapiens), Q9HCT0; recombinant FGF22 thermal shift, SYPRO orange fluorescence; percent of sucrose octasulfate shift, DMSO zero; calls only at 9.99 µM; 340,000 compounds, 1.5% hits;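 active means melting point raised past a set limit in the mean and every replicate; three in four hits are not shown here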
Target sequence (Q9HCT0 whole entry, looked up): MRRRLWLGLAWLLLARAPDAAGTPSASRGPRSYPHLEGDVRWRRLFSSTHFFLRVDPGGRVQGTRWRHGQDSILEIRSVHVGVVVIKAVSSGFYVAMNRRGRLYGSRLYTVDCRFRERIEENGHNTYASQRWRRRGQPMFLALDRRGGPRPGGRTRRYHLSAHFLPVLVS
AF4-AF9 inh = inhibitors of AF4 peptide binding to AF9, primary screen, biochemical, AlphaScreen, biotin-AF4 peptide, FLAG-AF9, single point; AID 651704, 2012; 350,000 compounds, 0.47% hits; Protein AF-9 (Homo sapiens), P42568; inhibition, % at 10 µM;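 active means every replicate reaching a set inhibition limit, whatever the replicate mean, cut at about 25% in these data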;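 further: 0% = plate neutral control median and 100% = total signal loss; the record names both 10 and 1 µM as test concentration; the first replicate is given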
Target sequence (P42568 whole entry, looked up): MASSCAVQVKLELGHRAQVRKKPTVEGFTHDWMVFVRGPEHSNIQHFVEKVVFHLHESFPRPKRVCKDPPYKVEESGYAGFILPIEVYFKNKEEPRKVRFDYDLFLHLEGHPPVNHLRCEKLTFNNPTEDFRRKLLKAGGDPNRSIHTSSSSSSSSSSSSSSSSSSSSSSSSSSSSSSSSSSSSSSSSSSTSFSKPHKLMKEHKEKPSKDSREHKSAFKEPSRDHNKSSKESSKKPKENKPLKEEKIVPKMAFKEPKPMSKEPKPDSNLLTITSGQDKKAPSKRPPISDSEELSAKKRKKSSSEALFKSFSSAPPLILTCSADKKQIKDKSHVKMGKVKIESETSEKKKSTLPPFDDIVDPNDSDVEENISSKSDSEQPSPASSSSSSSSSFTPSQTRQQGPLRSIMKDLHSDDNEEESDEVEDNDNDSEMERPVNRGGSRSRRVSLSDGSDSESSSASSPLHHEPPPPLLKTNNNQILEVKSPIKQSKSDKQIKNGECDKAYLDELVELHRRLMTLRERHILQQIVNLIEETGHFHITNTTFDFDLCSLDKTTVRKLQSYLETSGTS
rRNA inh HTS = reduced GFP signal of wild-type E. coli, primary screen, bacterial rRNA inhibitor project, GFP/RFP fluorescence, OD600, single point. E. coli WT GFP vs humanized-ribosome RFP mutants, 24 h; hits give low values; DMSO median 0, no signal -100. GFP signal change (wild-type ribosome), % (test concentration not listed). 350,000 compounds, 1.6% hits;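 active means significant combined selectivity score with lowered wild-type GFP, culture density cut under 30%, mutant RFP and density less affected; inactive means any of these conditions unmet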; further: one replicate is shown; some compounds called inactive have numbers as strong as hits
rRNA inh HTS OD600 = recorded beside rRNA inh HTS, whose call it bears; OD600 change, %; measured here: OD600 growth;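 optical density of the mix in the first replicate; 0 = DMSO median and -100 = no signal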
rRNA inh HTS RFP = recorded beside rRNA inh HTS, whose call it bears; RFP signal change, %; measured here: RFP humanized mutant strains;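 first replicate; 0 = DMSO median and -100 = no signal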
* hit, by the source's call; i = inactive; & = joins results of further samples; ! = not active in a repeat.

SMILES	FGF22 binding	AF4-AF9 inh	rRNA inh HTS	rRNA inh HTS OD600	rRNA inh HTS RFP
C[C@H]1CN([C@@H](C)CO)S(=O)(=O)c2ccc(C#Cc3cccc(F)c3)cc2O[C@@H]1CN(C)C(=O)CN1CCOCC1	i	4.1	-7	-16	9.2
C[C@H]1CN([C@@H](C)CO)C(=O)c2cc(NC(=O)Nc3ccccc3)ccc2O[C@H]1CN(C)Cc1ccc2c(c1)OCO2	i	2.5	-4	-36	32
COCC(=O)N1[C@H](CO)[C@@H](c2ccccc2)C12CN(C(=O)Nc1ccccc1F)C2	i	-1.6	2	4	-2.8
Cc1ccc(S(=O)(=O)Nc2cccc3c2O[C@@H](CN(C)Cc2ccncc2)[C@@H](C)CN([C@H](C)CO)C3=O)cc1	i	0.2	1	2	-5.5
CNC(=O)C[C@H]1CC[C@H]2[C@@H](COC[C@H](O)CN2Cc2ccc(Cl)c(Cl)c2)O1	i	-18	-4	5	-4.7
COc1ccc(CN(C)C[C@@H]2Oc3c(NS(=O)(=O)c4cn(C)cn4)cccc3C(=O)N([C@H](C)CO)C[C@@H]2C)cc1	i	-2.0	4	11	-1.4
C[C@@H]1CN([C@H](C)CO)C(=O)Cc2cc(NS(=O)(=O)c3cn(C)cn3)ccc2O[C@@H]1CN(C)CC1CCCCC1	i	-2.9	1	8	0.3
CN(C)CC(=O)Nc1ccc2c(c1)[C@@H]1C[C@H](CC(=O)NC3CCCCC3)O[C@H](CO)[C@@H]1O2	i	-3.5	4	5	-1.8
CO[C@@H]1CN(C)C(=O)c2cc(NC(=O)C3CC3)ccc2OC[C@@H](C)N(CC2CCCC2)C[C@@H]1C	i	-1.6	3	1	0.1
COc1ccc2c3c(n(C)c2c1)[C@@H](CO)N(Cc1ccc2c(c1)OCO2)CC31CN(C(=O)C2CC2)C1	i	11	-5	-14	-2.8
Cc1cccc(-c2ccc([C@H]3[C@H](CO)N4CCCCN(C(=O)c5ccc6c(c5)OCO6)C[C@@H]34)cc2)c1	i	15	-59	-70	-10
CO[C@H]1CN(C)C(=O)c2ccc(NC(C)=O)cc2OC[C@@H](C)N(CCc2ccccc2)C[C@@H]1C	i	0.9	-5	-4	0.4

Looked up by structure from above:
SMILES	FGF22 binding	AF4-AF9 inh	rRNA inh HTS	rRNA inh HTS OD600	rRNA inh HTS RFP
CO[C@H]1CN(C)C(=O)c2ccc(NC(C)=O)cc2OC[C@@H](C)N(CCc2ccccc2)C[C@@H]1C	i	0.9	-5	-4	0.4
CNC(=O)C[C@H]1CC[C@H]2[C@@H](COC[C@H](O)CN2Cc2ccc(Cl)c(Cl)c2)O1	i	-18	-4	5	-4.7
COCC(=O)N1[C@H](CO)[C@@H](c2ccccc2)C12CN(C(=O)Nc1ccccc1F)C2	i	-1.6	2	4	-2.8
C[C@H]1CN([C@@H](C)CO)S(=O)(=O)c2ccc(C#Cc3cccc(F)c3)cc2O[C@@H]1CN(C)C(=O)CN1CCOCC1	i	4.1	-7	-16	9.2
COc1ccc(CN(C)C[C@@H]2Oc3c(NS(=O)(=O)c4cn(C)cn4)cccc3C(=O)N([C@H](C)CO)C[C@@H]2C)cc1	i	-2.0	4	11	-1.4

New compounds follow
SMILES	FGF22 binding	AF4-AF9 inh	rRNA inh HTS	rRNA inh HTS OD600	rRNA inh HTS RFP
CC(C)NC(=O)N1[C@H](CO)[C@@H](c2ccccc2)C12CN(C(=O)Cc1ccccc1)C2	i	-22	-1	-2	-2.5
C[C@H](CO)N1C[C@H](C)[C@@H](CN(C)C(=O)Nc2ccc(F)cc2)Oc2ccc(N(C)C)cc2C1=O	i	-2.4	3	0	2.0
C[C@@H]1CN([C@@H](C)CO)S(=O)(=O)c2ccc(C#Cc3cccnc3)cc2O[C@@H]1CN(C)CC1CCOCC1	i	-1.9	5	19	-3.1
COc1ccc(-c2ccc3n(c2=O)C[C@@H]2[C@@H](CO)[C@H](C(=O)N(C)C)[C@H]3N2Cc2ccncc2)cc1	i	-15	-2	6	-2.5
O=S1(=O)N[C@H](Cc2ccccc2)COc2cc(N3CCCCC3)ccc21	i	0.4	-2	-15	-0.3
COCC#Cc1cnc2c(c1)C(=O)N([C@@H](C)CO)C[C@@H](C)[C@H](CN(C)C(=O)c1cnccn1)O2	i	-3.8	1	6	-2.1
CC(C)Oc1cc(F)ccc1-c1cc(C(=O)NCC2CCCCC2)[nH]n1	i	-0.9	-21	-40	7.5
Cc1c(C(=O)NCc2ccc(Cl)c(Cl)c2)sc(=O)n1Cc1ccc(S(=O)(=O)N(C)C)cc1	i	-2.6	4	10	-2.6
CCCN(C)C[C@H]1Oc2cc(-c3ccccc3F)ccc2S(=O)(=O)N([C@H](C)CO)C[C@H]1C	i	-0.5	-2	0	-1.0
OC[C@@H]1CN(CCc2ccccc2)C[C@H](n2cnc3c(NCc4ccc(F)cc4)ncnc32)O1	i	-0.5	-3	-13	3.8
C[C@@H]1CN([C@@H](C)CO)C(=O)c2ccccc2-c2ccccc2CO[C@H]1CN(C)C(=O)c1ccncc1	i	-0.3	3	6	-2.8
CC(C)(C)OC(=O)NCCCCCNC(=O)c1ncn2c1c(=O)[nH]c1ccccc12	i	-1.9	-5	-2	-0.2
C[C@H]1CN([C@@H](C)CO)C(=O)CCCn2cc(nn2)CO[C@@H]1CN(C)C(=O)Nc1ccc(N2CCCCC2)cc1	i	38*!	4&0	8&3	1.6&5.0
COc1cccc(CNC(=O)[C@H]2CCCN2C(=O)[C@H]2CCCN2C(=O)N2CCCCC2)c1	i	-2.6	15	0	4.7
C[C@H]1CN([C@@H](C)CO)C(=O)Cc2cc(NC(=O)c3ccncc3)ccc2O[C@H]1CN(C)Cc1ccccc1	i	-9.6	-4	7	1.2
O=S(=O)(NCC[C@H]1CC[C@@H](NS(=O)(=O)c2cccc(Cl)c2)[C@@H](CO)O1)c1cccc(F)c1	i	-0.7	-3	-6	2.7
CNC[C@H]1OCCCC[C@@H](C)Oc2ccc(NC(=O)C3CCCCC3)cc2C(=O)N([C@@H](C)CO)C[C@@H]1C	i	-5.5	7	11	-0.5
CCCC(=O)Nc1ccc2c(c1)C(=O)N(C)C[C@@H](OC)[C@@H](C)CN(CCc1ccccc1)[C@@H](C)CO2	i	0.4	2	-10	-1.7
CC1=C[C@@H]2[C@H]3C(=O)N(Cc4ccccc4)C(=O)[C@H]3[C@@H]1[C@@H]1O[C@@]3(C(=O)N(C)c4ccccc43)C3=C(CCCC3=O)N21	i	-0.7	13	21	0.3
O=C(CC1CC1)N1[C@@H]2CN(S(=O)(=O)c3ccccc3F)c3ccccc3[C@@H]2[C@@H]1CO	i	-0.6	-2	6	1.6
CC(=NN(Cc1ccccc1)c1ccccc1)c1ccccc1	i	5.7	11	13	-0.6
C[C@@H]1CN([C@@H](C)CO)C(=O)c2cc(NC(=O)Nc3ccc(C(F)(F)F)cc3)ccc2O[C@@H](C)CCCCO[C@H]1CN(C)C(=O)Nc1cccc2ccccc12	i	1.3	6	-2	1.1
COc1ccccc1CNC(=O)C[C@H]1C[C@@H]2c3cc(NC(=O)c4ccc5c(c4)OCO5)ccc3O[C@@H]2[C@H](CO)O1	i	9.2	-7	-12	2.7
CC(=O)N(C)C[C@H]1Oc2cc(-c3ccc(C)cc3)ccc2S(=O)(=O)N([C@@H](C)CO)C[C@@H]1C	i	-1.4	-7	-21	2.9
C[C@H]1CN([C@@H](C)CO)C(=O)c2cccc(NC(=O)c3nc4ccccc4s3)c2O[C@@H]1CN(C)S(=O)(=O)c1ccccc1	i	-4.6	-3	5	-2.8
Cc1ccc(S(=O)(=O)Nc2ccc3c(c2)C(=O)N([C@H](C)CO)C[C@H](C)[C@H](CN(C)C(=O)Nc2ccccc2)OCCCC[C@@H](C)O3)cc1	i	-0.2	3	-4	0.6
C/C=C/c1ccc2c(c1)O[C@H](CN(C)S(=O)(=O)c1ccc(C)cc1)[C@H](C)CN([C@H](C)CO)S2(=O)=O	i	4.5	1	-2	1.7
O=C(NCc1ccccc1)C(c1ccncc1)n1c(=O)c(-c2cc3ccccc3[nH]2)nc2ccccc21 (centres undefined)	i	-22	-49	-75	-7.5
COc1ccccc1CN(C)C[C@@H]1OCc2ccccc2-c2c(n(C)c3ccccc23)C(=O)N([C@@H](C)CO)C[C@H]1C	i	9.8	1	-2	6.4
C#Cc1ccc(NC(=O)C2(C)CCN2C(=O)c2ccccc2CCc2ccccc2)cc1 (centres undefined)	i	-6.2	5	8	0.1
COc1ccc(NC(=O)N(C)C[C@@H]2Oc3ccc(NC(=O)C4CCCCC4)cc3C(=O)N([C@H](C)CO)C[C@@H]2C)cc1	i	-3.0	0	-8	2.9
C[C@H](CO)N1C[C@H](C)[C@H](CN(C)Cc2ccc(C(F)(F)F)cc2)Oc2c(NC(=O)C3CC3)cccc2C1=O	i	-1.6	-4	2	0.8
N#C[C@@H]1[C@H](c2ccccc2-c2ccccc2)[C@@H](CO)N1c1ncc(-c2ccccc2)s1	i	-1.3	1	1	1.1
C[C@H]1CN([C@@H](C)CO)C(=O)Cc2cc(NC(=O)c3ccncc3)ccc2O[C@@H]1CN(C)C(=O)Nc1ccc2c(c1)OCO2	i	-3.0	-1	3	-0.5
CCc1nc2c(OCC(=O)c3ccc(F)cc3)cccn2c1N(C)C(=O)c1ccc(OC)cc1	i	1.8	0	-1	1.5
COCCNC(=O)C[C@H]1CC[C@H]2[C@@H](COC[C@H](O)CN2C(=O)Nc2ccc3c(c2)OCO3)O1	i	9.3	5	4	1.4
C[C@H]1CN([C@@H](C)CO)C(=O)c2cc(NC(=O)Cc3cn(C)c4ccccc34)ccc2O[C@H]1CN(C)S(=O)(=O)c1cn(C)cn1	i	1.2	-2	-5	-0.7
CCC(c1nnnn1-c1c(C)cccc1C)N1CCN(c2cccc(C(F)(F)F)n2)CC1 (centres undefined)	i	-0.9	6	5	-3.3
Cc1noc(C)c1NC(=O)Nc1ccc2c(c1)C(=O)N(C)[C@@H]1CC[C@H](CC(=O)N(C)C)O[C@H]1CO2	i	-0.6	2	4	-1.6
C[C@H](CO)N1C[C@H](C)[C@H](CN(C)S(=O)(=O)c2ccc(Cl)cc2)Oc2ccc(N(C)C)cc2CC1=O	i	4.8	-3	-5	0.1
N#C[C@H]1[C@H](c2ccc(C#CCC3CCCC3)cc2)[C@H](CO)N1C(=O)CN1CCOCC1	i	7.0	-19	-62	17
C[C@H]1CCCCO[C@@H](CN(C)C(=O)C2CCCCC2)[C@@H](C)CN([C@@H](C)CO)C(=O)c2cc(NC(=O)NC3CCCCC3)ccc2O1	i	-2.0	-2	-9	1.3
CCCNC(=O)N1CC2(CCN(CC3CCCC3)CC2)c2c(n(C)c3cc(OC)ccc23)[C@@H]1CO	i	2.8	3	10	-4.4
CS(=O)(=O)N1CC(=O)N2[C@H](C1)[C@H](c1ccc(C#CCc3ccccc3)cc1)[C@@H]2CO	i	-0.1	0	1	2.1
C[C@H](CO)N1C[C@H](C)[C@@H](CN(C)Cc2cncnc2)Oc2ncc(C#CC(C)(C)O)cc2C1=O	i	-0.4	2	9	-2.9
C[C@H]1CN([C@@H](C)CO)C(=O)c2cc(C#CCC3CCCC3)cnc2O[C@@H]1CN(C)S(=O)(=O)c1cccs1	i	-7.1	0	-5	0.7
COc1ccccc1NC(=O)N[C@@H]1CC[C@H](CCn2cc(-c3ccccc3)nn2)O[C@@H]1CO	i	2.8	-2	4	6.6
C[C@H]1CN([C@@H](C)CO)C(=O)c2cccc(NC(=O)c3ccc(-c4nccs4)cc3)c2O[C@@H]1CN(C)C(=O)Nc1ccc(C(F)(F)F)cc1	i	2.6	-7	-5	1.3
Cc1noc(C)c1S(=O)(=O)Nc1ccc2c(c1)C(=O)N([C@@H](C)CO)C[C@H](C)[C@H](CN(C)Cc1ccc3c(c1)OCO3)O2	i	-3.2	-1	5	-2.1
CN1CCN(C2CN(C3CCCC3)S(=O)(=O)C2)CC1 (centres undefined)	i	-2.5	15	-1	3.0
O=C(C[C@H]1CC[C@@H]2[C@H](COC[C@@H](O)CN2CCC(F)(F)F)O1)N1CCC(Cc2ccccc2)CC1	i	0.3	4	14	0.3
C[C@H](NC(=O)C[C@@H]1C[C@@H]2c3cc(NC(=O)NC4CCCC4)ccc3O[C@@H]2[C@H](CO)O1)c1ccccc1	i	-1.8	0	-1	-0.6
CO[C@H]1CN(C)C(=O)c2cc(NC(=O)Cc3ccccc3)ccc2OC[C@H](C)N(C(=O)c2ccccc2F)C[C@@H]1C	i	2.5	3	1	-0.4
C[C@H](CO)N1C[C@H](C)[C@H](CN(C)CC2CC2)OCCCC[C@H](C)Oc2ccc(NC(=O)c3ccncc3)cc2C1=O	i	-3.3	1	5	0.0

Screening results deposited in PubChem BioAssay by Broad Institute.

The list is partial; count on the stated rates, not on these rows.
